RanGTP-Imp inh – inhibitors of RanGTP-importin-beta interaction, primary screen, biochemical, FRET, CFP-Ran, YFP-importin-beta, homogeneous; cell-free CFP-Ran/YFP-importin-beta FRET ratio; inhibition, % (concentration not given with the values); 1.1% of 300,000 active; AID 2216;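 active means most replicates above 15%; inconclusive means exactly half above 15%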;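 further: 0% = DMSO wells and 100% = Ran loaded with GDP instead of GTP; wells of about 40 µL received 100 nL stock; the first replicate is given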
Vif A3G – inhibitors of Vif binding to APOBEC3G peptide, primary screen, biochemical, TR-FRET, GST-Vif 1-94, biotin-A3G peptide, dose response retest (AID 1117319) | TR-FRET GST-Vif / biotin-A3G peptide binding; higher % means a stronger effect; test concentration not given here; strong numbers were not always called active | inhibition, %, or IC50 in µM where a hit was titrated | 0.57% of 260,000 active;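 active means above the screen mean plus three standard deviations and confirmed in dose response; inconclusive means results disagree or hit not tested in dose response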;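 further: Vif residues 1-94 fused to GST binding biotinylated APOBEC3G peptide 110-148; 0% = full assay without inhibitor and 100% = GST in place of GST-Vif; retest series ran down from 100 µM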
Calb FLC – C. albicans growth modulation with fluconazole; C. albicans CaCi-2 (fluconazole-resistant clinical isolate) + fluconazole, Alamar Blue growth, 48 h; growth inhibition, % (no concentration beside the values); 0.57% of 300,000 active; AID 1979;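 active means most replicates above 75%; inconclusive means exactly half above 75%; inactive means most below 75%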;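 further: all wells also contain fluconazole at 8 µg/ml as a sub-toxic cotreatment; 0% = median of DMSO wells and 100% = median of geldanamycin control wells; wells of about 8 µL received 7.5 nL stock; the first replicate is given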
ALR inh – inhibitors of human sulfhydryl oxidase ALR; P55789; purified ALR, DTT oxidation, H2O2 HRP-luminol luminescence; inhibition, % (no concentration beside the values); 3.8% of 290,000 active;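 active means mean and each replicate at 75% or more; inconclusive means only one of the two met; inactive means neither met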;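 further: stock transfer was 7.5 nL into about 7.5 µL; 0% = neutral wells and 100% = wells with inactivated enzyme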
Target sequence (P55789 whole entry, looked up): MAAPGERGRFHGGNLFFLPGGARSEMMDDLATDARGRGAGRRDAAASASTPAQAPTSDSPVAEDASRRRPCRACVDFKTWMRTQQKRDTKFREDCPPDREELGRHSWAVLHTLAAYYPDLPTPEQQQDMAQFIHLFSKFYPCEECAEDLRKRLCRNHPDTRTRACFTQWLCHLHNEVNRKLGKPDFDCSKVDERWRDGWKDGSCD
HNF4A DNA FP – change in binding of human HNF4 alpha to DNA; P41235; HNF4a-FITC DNA binding, fluorescence polarization, 1 h; activity change, % at 10 µM; 0.3% of 360,000 active; in the data active means activity change above about 30%, passing the limit was not always enough;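 further: controls were the assay level and a saturating level of protein; the project sought stronger binding though the title names inhibitors; some compounds called inactive have numbers as strong as hits; positive values seem to mean higher polarization but the record does not say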
Target sequence (P41235 whole entry, looked up): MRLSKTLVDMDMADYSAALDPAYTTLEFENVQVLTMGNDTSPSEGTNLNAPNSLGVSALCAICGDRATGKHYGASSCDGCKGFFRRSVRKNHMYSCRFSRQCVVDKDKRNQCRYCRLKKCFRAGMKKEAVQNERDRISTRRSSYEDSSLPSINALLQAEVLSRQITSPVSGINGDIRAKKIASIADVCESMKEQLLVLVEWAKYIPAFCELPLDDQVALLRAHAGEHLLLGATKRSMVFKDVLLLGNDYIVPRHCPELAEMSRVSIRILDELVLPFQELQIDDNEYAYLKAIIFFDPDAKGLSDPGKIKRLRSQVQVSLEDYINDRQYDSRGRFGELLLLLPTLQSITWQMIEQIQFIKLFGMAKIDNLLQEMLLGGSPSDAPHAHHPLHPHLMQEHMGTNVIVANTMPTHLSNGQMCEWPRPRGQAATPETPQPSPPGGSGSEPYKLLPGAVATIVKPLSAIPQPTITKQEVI
LANA-H2A inh – blocks KSHV LANA binding to histone H2A/H2B. Q9QR71. cell-free LANA-H2A/H2B peptide, fluorescence polarization. inhibition, % (test concentration not listed). 0.6% of 320,000 active. AID 2629; in the data active means inhibition mostly above about 10%, no sharp cut-off; inactive means mostly below about 6.7%;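 further: stock transfer was 7.5 nL into about 10 µL; 0% = median of vehicle wells and 100% = median of positive control wells; one replicate is shown; the record names a cut of 25% in any replicate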
B2AR ag – activates human beta-2 adrenergic receptor causing internalization. P07550. Am2.2-beta2AR cells, FAP receptor internalization, flow cytometry; reference of the scale not given here. response, % (test concentration not listed). 0.43% of 340,000 active;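 active means response above a set limit, near 3 SD of response in nonfluorescent compounds, cut at about 42% in these data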;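 further: stock transfer was 100 nL into about 11 µL; a reference agonist was the positive control; negative values mostly stem from fluorescent compounds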
Active calls of the source: *; ? = inconclusive; nt = not tested or not shown. Compounds were not picked by outcome; any-hit rate near 6.3%.

Each structure is followed by: RanGTP-Imp inh, Vif A3G, Calb FLC, ALR inh, HNF4A DNA FP, LANA-H2A inh, B2AR ag
- O=C(C1CC1)N1CCN(c2nc3ccccc3s2)CC1
    2.5, 6%, -2, -1, -0.2, -2.0, -3
- CCCC(C(=O)Nc1ccc(C)c(S(=O)(=O)N2CCOCC2)c1)c1ccccc1 (centres undefined)
    -0.7, 6%, 21, -1, -0.6, 2.4, -4
- CCOc1ccc(S(=O)(=O)NCCCn2ccnc2)cc1
    -0.7, nt, 0, -5, -4.3, 1.3, -3
- COC(=O)c1ccc(Cn2cnc3c(cnn3-c3ccc(C)c(C)c3)c2=O)o1
    1.5, -5%, -18, 25, -1.2, -1.5, 3
- COc1ccc(NC(=O)CN(c2ccc(F)cc2)S(=O)(=O)c2ccccc2)c(OC)c1
    6.1, nt, 1, -5, 3.0, -1.4, -6
- COc1ccc(N/C=C\C(=O)c2ccc3c(c2)OCO3)cc1OC
    0.9, -7%, 2, -8, 2.1, 0.0, -2
- COc1ccc(-n2nc3c(c2NC(=O)C24CC5CC(CC(C5)C2)C4)CS(=O)C3)cc1 (centres undefined)
    6.0, -2%, 6, -18, 0.8, -2.2, -1
- CCCc1nnc(SCC(=O)Nc2nnc(CC)s2)n1CC1CCCO1 (centres undefined)
    -1.7, nt, -3, -3, -3.0, -2.9, -5
- Cc1cc(C(c2cc(C)c(N)c(C)c2)c2ccco2)cc(C)c1N
    0.9, nt, 43, nt, -1.4, 2.4, 2
- CCC(=O)Nc1c2c(nn1-c1ccccc1)CSC2
    -0.7, nt, 20, -2, 2.8, -2.7, 3
- COc1cccc(CNC(=O)C2CCN(S(=O)(=O)c3ccc(F)cc3)CC2)c1
    ?, 2%, 4, nt, -1.8, nt, 5
- Cc1cc(CNC(=O)C(C)n2nc(C)c([N+](=O)[O-])c2C)c2ccccc2n1 (centres undefined)
    -0.6, 3%, 4, 14, 3.2, 1.4, -5
- Cc1c(NC(=O)C(C)OC(=O)c2cccs2)c(=O)n(-c2ccccc2)n1C (centres undefined)
    2.0, nt, -12, 1, -1.0, -2.0, -2
- FC(F)(F)c1cccc(CNc2ncccc2-c2nc3cc(Cl)ccc3o2)c1
    9.9, 0%, 1, -16, -2.9, -1.3, 0
- Cn1c(=O)cc(NCCc2ccccc2)[nH]c1=O
    2.8, -2%, -4, 11, -1.3, 3.3, 6
- COC(CNC(=O)c1ccc(N2CCc3ccccc32)c([N+](=O)[O-])c1)OC
    1.6, nt, 3, 1, -0.8, 5.0, -4
- Cc1ccc2cccc(NC(=S)NC(=O)c3ccnn3C)c2n1
    3.5, 0%, 7, nt, 3.5, -2.5, 10
- Cc1cccc(OCCCCc2c(C)n[nH]c2C)c1C
    -1.8, 18%, ?, -11, 0.4, 4.2, 3
- COCCN(C(=O)Nc1ccccc1)C(C)c1cccnc1 (centres undefined)
    3.1, 6%, 0, -10, 2.2, 1.1, 2
- N#CC(C#N)=C/C(C#N)=C(/N)N1CCN(c2ccc(Cl)cc2)CC1
    0.4, 20%, 25, 55, 0.9, 18*, -9
- O=C(c1ccco1)N1CCN(C(=S)Nc2ccccc2Cl)CC1
    2.2, -10%, 4, 2, 1.7, -6.3, 0
- Cc1ccc(S(=O)(=O)Nc2ccc(Cl)cn2)cc1
    2.6, -6%, 13, nt, -1.5, 6.0, 1
- Cc1c(OC(C)C(=O)N2C[C@H]3C[C@@H](C2)c2cccc(=O)n2C3)ccc2c3c(c(=O)oc12)CCCC3 (some centres undefined)
    1.7, nt, -2, -4, 5.3, -4.6, -20
- CCCc1ccc(C(C)NC(=S)NCc2ccc(F)cc2)cc1 (centres undefined)
    -1.0, nt, -16, -17, 0.4, 7.5, 0
- O=S(=O)(Cc1ccccc1)NCC1CCCN(Cc2ccc3nonc3c2)C1 (centres undefined)
    5.5, 31%, -4, -7, -3.0, -2.0, 2
- COc1ccc(S(=O)(=O)NCC2CC3C=CC2C3)cc1OC (centres undefined)
    3.6, nt, 6, 4, -2.5, -0.1, -2
- CCC1Oc2ccc(C)cc2N(CC(=O)N(Cc2ccc3c(c2)OCO3)CC2CCCO2)C1=O (centres undefined)
    4.2, 2%, -13, -1, 2.1, -3.9, -1
- Cc1nn(-c2ccc([N+](=O)[O-])cc2)c2c1C(c1cccc(Br)c1)N1C(=N2)C(=O)Nc2ccccc21 (centres undefined)
    2.5, 22%, 11, 1, 2.5, -1.4, -2
- CC1CCN(C(=O)Cn2c(=O)n(CCc3ccccc3)c(=O)c3ccccc32)CC1
    -1.8, -4%, 29, 3, -1.7, -1.7, 6
- C#CCOCCOCCOCCNc1nc(N2CCN(C(=O)[C@H](CCCCN)n3cc([C@@H](N)CO)nn3)CC2)nc(N2CCN(C(=O)[C@H](CCCCN)n3cc([C@@H](N)CC(C)C)nn3)CC2)n1
    nt, nt, nt, -3, 10.0, -3.9, -7

(next part)
SMILES | RanGTP-Imp inh | Vif A3G | Calb FLC | ALR inh | HNF4A DNA FP | LANA-H2A inh | B2AR ag
COc1cc(/C=C/C(=O)c2ccc3c(c2)OCO3)cc(OC)c1OC | nt | nt | nt | 71 | -6.4 | 6.7 | 2
Cc1ccc(S(=O)(=O)N(C)C)cc1NC(=O)COC(=O)Cc1n[nH]c(=O)c2ccccc12 | 1.7 | 0% | 0 | 0 | 2.6 | -0.9 | -2
COc1ccccc1NC(=S)NC12CN3CN(CN(C3)C1)C2 | 1.7 | nt | -26 | -4 | -1.3 | -0.5 | -1
CCn1c(CNC(=O)COc2ccc(C(C)C)cc2)nnc1SCC(=O)Nc1ccccc1C(C)C | 6.1 | 2% | 8 | -5 | 2.3 | 0.4 | 4
COc1ccc(CCNC(=O)CSc2nnc(C(C)N(C)C)n2Cc2ccccc2)cc1OC (centres undefined) | 0.4 | 6% | -2 | -3 | 2.0 | 1.9 | 0
Cc1ccc(NC(=O)COC(=O)CNC(=O)c2ccc3ccccc3c2)c([N+](=O)[O-])c1 | 0.0 | -3% | 7 | 1 | -1.2 | 5.4 | 0
O=C(CSCc1ccc(Cl)cc1)NN=C1CCCC1 | -4.2 | -7% | -6 | 10 | 1.1 | -5.6 | 5
COCC(=O)Oc1c(S(=O)(=O)c2ccccc2)c(C)nn1C(C)(C)C | -0.8 | 0% | 2 | 3 | 0.8 | 2.6 | 1
COc1ccc(CCNS(=O)(=O)c2cn(C)nc2C)cc1 | 3.2 | nt | -13 | -2 | 1.4 | 4.0 | 1
Cc1ccc(NC(=O)C2CCN(C(=O)NC3CCCCC3)CC2)c(C)c1 | -3.8 | nt | -3 | -4 | 0.3 | -1.7 | 7
CCNC(=O)CC1C(=O)N(c2ccccc2)C(=O)N1CCC(C)C (centres undefined) | 6.1 | 7% | -5 | -3 | -0.6 | -2.5 | 3
O=S(=O)(c1ccc(N2CCCC2)nc1)N1CCOCC1 | 0.6 | -2% | -18 | nt | -0.4 | nt | -4
O=C(CSc1nc2ncccc2[nH]1)NC1CCCCC1 | 0.6 | nt | 9 | 18 | 1.6 | 1.8 | -5
Cn1c(N)c(C(=O)COC(=O)Cc2ccc(Cl)cc2Cl)c(=O)n(C)c1=O | nt | -5% | nt | nt | -0.6 | nt | -13
COc1ccc(C(=O)NC(=S)Nc2ccc(CN3CCOCC3)cc2)cc1Cl | -11 | nt | nt | 3 | -0.1 | 2.0 | 7
CCCc1cc(NCc2ccccn2)n2nc(C)c(-c3ccccc3)c2n1 | 0.4 | 1% | 1 | 37 | -3.0 | 2.4 | 2
O=S(=O)(c1cccs1)N1CCN(c2ccc(Cl)cc2)CC1 | 1.2 | nt | -1 | 2 | 4.0 | -0.5 | 7
C/C=C(\C)C(=O)Nc1cccc(C2=NOC3(C2)C[C@@H](C(N)=O)N(C(=O)c2ccccc2C(=O)c2ccccc2)C3)c1 (some centres undefined) | 0.5 | nt | -6 | -38 | 6.3 | -6.1 | 0
Cc1cccc2cc(C#N)c(NCCNC(=O)NC3CCCCC3)nc12 | 2.6 | -4% | ? | -14 | 5.1 | -0.4 | 0
COc1ccc(/C(O)=C2\C(=O)C(=O)N(c3cc(C)on3)C2c2ccccc2OC)cc1C (centres undefined) | 0.2 | -5% | -7 | 10 | 1.4 | -3.6 | 2
COc1cccc(CNC(=O)c2cc3ccccn3n2)c1 | -0.9 | 13% | -2 | -6 | 0.8 | -3.3 | 0
CC(C)(C)C(=O)Nc1nc(=S)ss1 | -3.6 | 5% | -29 | 12 | 0.2 | 3.9 | 13
C=C1c2cc(C)c(C)cc2NC(=O)N1c1ccccc1 | -0.1 | -4% | 29 | 2 | 4.6 | -6.5 | 4
CC(=O)C[C@H](O)CC(=O)[C@@H]1OC(=O)CCCCCc2ccccc21 | nt | -2% | nt | nt | -2.0 | 0.6 | 19
O=C(COc1ncnc2ccccc12)NCCC1=CCCCC1 | ? | 2% | 3 | -4 | -3.1 | -2.9 | -8
COC(=O)Cc1cc(=O)oc2cc(O)ccc12 | 69* | -2% | -10 | 13 | -1.8 | 2.5 | 5
CCOC(=O)C1=C(COC(=O)c2cccs2)NC(=O)NC1C (centres undefined) | -0.2 | 2% | 0 | -8 | -0.6 | 2.5 | -13
Cc1cccc(C)c1NC(=O)CN(C)C(=O)CCC(=O)c1ccccc1 | nt | nt | nt | nt | -3.1 | -8.5 | -4
Cc1ccc2nc(NC(=O)C3CCN(S(=O)(=O)c4cc([N+](=O)[O-])ccc4Cl)CC3)sc2c1 | 0.1 | ? | 7 | 3 | -6.5 | -2.9 | 19
C#CC(CC)(CC)NC(=O)NC1CCCCC1 | -1.9 | 6% | -24 | -15 | -3.9 | 2.1 | -4
O=Cc1cccn1-c1nccc(-c2ccco2)n1 | -1.4 | 7% | 8 | -2 | -4.2 | 2.4 | 4
CC(=O)N1CCN(C(=O)c2cc(-c3ccc(C)o3)nc3ccccc23)CC1 | 5.1 | 5% | -1 | -9 | -2.1 | 0.4 | -6
O=C(Nc1cccc(Cl)c1)c1cncn1-c1ccc(F)cc1 | 2.5 | nt | -3 | 0 | 1.4 | 0.5 | 1
CC(C)CC(=O)Nc1ccc(C(=O)COC(=O)C2=COCCO2)cc1 | 0.9 | -2% | 17 | -2 | -1.3 | 1.1 | -7
CCN(CC(=O)Nc1c(F)cccc1F)C(=O)c1ccc(-n2cncn2)c([N+](=O)[O-])c1 | nt | 0% | 8 | -20 | 0.5 | 1.9 | 2
Cc1ccc(Oc2nnc(-c3ccccc3)c3ccccc23)cc1 | ? | 1% | -1 | -4 | 1.9 | -6.1 | -5
Cc1ccc(S(=O)(=O)NC(CC(=O)O)c2ccccc2)c(C)c1 (centres undefined) | 3.8 | -2% | -3 | 2 | 0.3 | -4.3 | 2
CC(C)CC(=O)Nc1ccc(C(=O)NNC(=S)NC(=O)C2CCCCC2)cc1 | 3.2 | 9% | 3 | -3 | 3.6 | -4.4 | -6
COCC(=O)c1[nH]c2ccccc2c1C | -2.1 | -2% | 4 | 92* | 2.1 | -0.8 | 0
CCC(NC(=O)Nc1cc(C)on1)(C(F)(F)F)C(F)(F)F | 2.8 | -9% | -1 | -1 | -0.5 | -0.9 | 0

Of the compounds above, these have a tert-butyl group.
SMILES | RanGTP-Imp inh | Vif A3G | Calb FLC | ALR inh | HNF4A DNA FP | LANA-H2A inh | B2AR ag
COCC(=O)Oc1c(S(=O)(=O)c2ccccc2)c(C)nn1C(C)(C)C | -0.8 | 0% | 2 | 3 | 0.8 | 2.6 | 1
CC(C)(C)C(=O)Nc1nc(=S)ss1 | -3.6 | 5% | -29 | 12 | 0.2 | 3.9 | 13

Screening results: PubChem, several laboratories
